Bioassay records as filed in PubChem BioAssay.
rRNA inh HTS: inhibitors of bacterial rRNA selective over humanized ribosomes; E. coli WT GFP vs humanized-ribosome RFP mutants, fluorescence, 24 h; hits give low values; DMSO median 0, no signal -100; GFP signal change (wild-type ribosome), % (no concentration beside the values); 350,000 compounds, 1.6% hits; AID 720706;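 active means significant combined selectivity score with lowered wild-type GFP, culture density cut under 30%, mutant RFP and density less affected; inactive means any of these conditions unmet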; further: one replicate is shown; some compounds called inactive have numbers as strong as hits
FGF22 binding: FGF22 (human) thermal shift binding | Q9HCT0 | recombinant FGF22 thermal shift, SYPRO orange fluorescence; percent of sucrose octasulfate shift, DMSO zero | calls only at 9.99 µM | 340,000 compounds, 1.5% hits;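 active means melting point raised past a set limit in the mean and every replicate; three in four hits are not shown here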
Target sequence (Q9HCT0 whole entry, looked up): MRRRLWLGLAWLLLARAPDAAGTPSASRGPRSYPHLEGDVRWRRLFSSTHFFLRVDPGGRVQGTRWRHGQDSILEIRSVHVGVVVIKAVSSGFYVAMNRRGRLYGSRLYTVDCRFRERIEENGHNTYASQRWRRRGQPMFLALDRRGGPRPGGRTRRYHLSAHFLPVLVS
MLL AF4-AF9 inh: blocks AF4 peptide binding to human AF9; 350,000 compounds, 0.47% hits; inhibition, % at 10 µM; AID 651704; P42568; AlphaScreen, biotin-AF4 peptide binding to FLAG-AF9;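 active means every replicate reaching a set inhibition limit, whatever the replicate mean, cut at about 25% in these data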;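 further: 0% = plate neutral control median and 100% = total signal loss; the record names both 10 and 1 µM as test concentration; the first replicate is given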
Target sequence (P42568 whole entry, looked up): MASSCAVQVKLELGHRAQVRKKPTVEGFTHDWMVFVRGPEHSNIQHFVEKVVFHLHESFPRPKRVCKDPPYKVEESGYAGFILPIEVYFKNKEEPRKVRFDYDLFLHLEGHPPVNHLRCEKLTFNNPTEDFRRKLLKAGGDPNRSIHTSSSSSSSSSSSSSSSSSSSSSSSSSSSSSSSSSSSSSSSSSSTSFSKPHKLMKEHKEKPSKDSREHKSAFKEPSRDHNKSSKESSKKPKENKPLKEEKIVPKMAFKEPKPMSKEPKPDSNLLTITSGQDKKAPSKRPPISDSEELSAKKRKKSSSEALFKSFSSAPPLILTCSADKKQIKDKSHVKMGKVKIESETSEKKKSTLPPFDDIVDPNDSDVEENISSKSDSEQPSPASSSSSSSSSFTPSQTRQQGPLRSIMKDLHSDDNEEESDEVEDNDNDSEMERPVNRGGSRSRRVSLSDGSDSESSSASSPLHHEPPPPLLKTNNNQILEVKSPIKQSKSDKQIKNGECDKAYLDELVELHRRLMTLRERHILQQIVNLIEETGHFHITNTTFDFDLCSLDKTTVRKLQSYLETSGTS
rRNA inh HTS OD600: also measured in rRNA inh HTS; calls as there; OD600 change, %; measured here: OD600 growth;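 optical density of the mix in the first replicate; 0 = DMSO median and -100 = no signal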
rRNA inh HTS RFP: further read-out of rRNA inh HTS, marked with its call; RFP signal change, %; measured here: RFP humanized mutant strains;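 first replicate; 0 = DMSO median and -100 = no signal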
Numbers without * were called inactive; i = inactive; & = joins results of further samples. Not all compounds are listed, so the mix of outcomes need not match the whole.

SMILES	rRNA inh HTS	rRNA inh HTS OD600	rRNA inh HTS RFP	FGF22 binding	MLL AF4-AF9 inh
C[C@H](CO)N1C[C@H](C)[C@H](CN(C)CC2CC2)Oc2cc(C#Cc3ccccc3F)ccc2S1(=O)=O	-2	-11	24	i	3.6
O=C(C[C@@H]1C=C[C@H](NC(=O)C2CC2)[C@@H](CO)O1)NC1CCC1	1	2	-1.4	i	0.1
COc1ccc(S(=O)(=O)Nc2ccc3c(c2)CC(=O)N([C@@H](C)CO)C[C@H](C)[C@H](CN(C)Cc2ccc(-c4ccccc4)cc2)O3)cc1	0	3	-0.6	i	-1.8
O=C(NCC[C@@H]1CC[C@H](NC(=O)C2CCCC2)[C@@H](CO)O1)c1cc(Cl)cc(Cl)c1	-8	-10	2.1	i	0.6
CCC(=O)N1[C@@H]2Cn3c(ccc(/C=C/c4ccccc4)c3=O)[C@H]1[C@@H](C(=O)N(C)C)[C@@H]2CO	3	-1	3.6	i	-0.9
C[C@@H](O)C#Cc1cnc2c(c1)C(=O)N([C@@H](C)CO)C[C@H](C)[C@@H](CN(C)C(=O)Cc1ccccn1)O2	1	6	0.5	i	-4.0
CO[C@@H]1CN(C)C(=O)c2ccc(NC(=O)Nc3c(C)noc3C)cc2OC[C@H](C)N(CC2CC2)C[C@@H]1C	2	4	-2.9	i	-1.6
COc1ccc2c3c([nH]c2c1)[C@H](CO)N(Cc1ccncc1)CC31CN(CC2CCOCC2)C1	1	-3	-1.2	i	0.4
C[C@H](CO)N1C[C@H](C)[C@@H](CN(C)Cc2ccccn2)Oc2ncc(-c3ccc(F)cc3)cc2C1=O	-4	1	3.0	i	-3.2
CN(C)CC(=O)N1[C@H](C#N)[C@@H](c2ccccc2-c2ccccc2F)[C@@H]1CO	6	12	-1.3	i	-0.2
CCC(=O)N1CC2(C1)[C@H](c1ccccc1)[C@@H](CO)N2C(=O)c1cccnc1	1	1	-0.5	i	-1.9
COCC(=O)N(C)C[C@@H]1Oc2ncc(C#C[C@@H](C)O)cc2C(=O)N([C@@H](C)CO)C[C@@H]1C	2	3	-1.2	i	-1.4
COc1ccc(S(=O)(=O)N(C)C[C@H]2OCCCC[C@H](C)Oc3ccc(NC(=O)c4ccncc4)cc3C(=O)N([C@H](C)CO)C[C@@H]2C)cc1	-1	-3	9.4	i	-0.7
Cc1noc(C)c1NC(=O)Nc1ccc2c(c1)C(=O)N([C@H](C)CO)C[C@H](C)[C@H](CN(C)C(=O)Nc1c(C)noc1C)OCCCC[C@H](C)O2	2	4	-0.5	i	-3.8
O=C(CN1CCOCC1)N1c2ccccc2Sc2ccc(Cl)cc21	-9	-4	-2.4	i	-1.4
O=C(Nc1ccc(F)cc1)N[C@H]1CC[C@H](CCNS(=O)(=O)c2ccccc2F)O[C@@H]1CO	-6	-8	1.6	i	-5.0
C[C@H](CO)N1C[C@H](C)[C@H](CN(C)S(=O)(=O)c2ccc(Cl)cc2)Oc2ccc(NC(=O)c3ccncc3)cc2CC1=O	-1	1	2.9	i	0.3
COc1ccc(C(C)NC(=O)C2CCN(CCCc3ccccc3)CC2)cc1OC (centres undefined)	7	7	-2.4	i	0.9
O=C(CC(F)(F)F)N1C[C@@H]2[C@H](c3ccccc31)[C@H](CO)N2CC1CCCCC1	-2	-4	1.5	i	-0.9
Cc1ccccc1-c1cnc2c(c1)C(=O)N([C@H](C)CO)C[C@H](C)[C@@H](CN(C)Cc1ccccc1F)O2	-5	6	3.0	i	5.3
C=CCn1nc(C(=O)OCC)cc1-c1sc(NC(=O)c2ccccc2)nc1C	4	20	4.8	i	1.0
C[C@@H]1CCCCO[C@H](CN(C)C(=O)Nc2cccc3ccccc23)[C@@H](C)CN([C@@H](C)CO)C(=O)c2cc(NS(C)(=O)=O)ccc2O1	0	-11	-0.6	i	-8.1
CS(=O)(=O)Nc1ccc2c(c1)[C@@H]1C[C@H](CC(=O)N3CCc4ccccc4C3)O[C@@H](CO)[C@@H]1O2	-5	-4	-2.1	i	0.7
CN1C(=O)c2cc(NC(=O)c3cccc(F)c3)ccc2OC[C@@H]2O[C@@H](CC(=O)NCC3CCCCC3)CC[C@H]21	-6&-8	-22&-13	0.1&3.2	i	-5.3&-1.0
CC=Cc1ccc2n(c1=O)C[C@H]1[C@H](CO)[C@@H](C(=O)NC3CCC3)[C@@H]2N1Cc1ccccc1 (mixture of isomers)	3	-1	-0.1	i	0.2

Some of these compounds in order of SMILES length, ascending.
SMILES	rRNA inh HTS	rRNA inh HTS OD600	rRNA inh HTS RFP	FGF22 binding	MLL AF4-AF9 inh
C=CCn1nc(C(=O)OCC)cc1-c1sc(NC(=O)c2ccccc2)nc1C	4	20	4.8	i	1.0
O=C(CC(F)(F)F)N1C[C@@H]2[C@H](c3ccccc31)[C@H](CO)N2CC1CCCCC1	-2	-4	1.5	i	-0.9
O=C(NCC[C@@H]1CC[C@H](NC(=O)C2CCCC2)[C@@H](CO)O1)c1cc(Cl)cc(Cl)c1	-8	-10	2.1	i	0.6
CC=Cc1ccc2n(c1=O)C[C@H]1[C@H](CO)[C@@H](C(=O)NC3CCC3)[C@@H]2N1Cc1ccccc1 (mixture of isomers)	3	-1	-0.1	i	0.2

(listing goes on)
SMILES	rRNA inh HTS	rRNA inh HTS OD600	rRNA inh HTS RFP	FGF22 binding	MLL AF4-AF9 inh
CC1(C(=O)NS(=O)(=O)C2CC2)CCN(C(=O)COc2ccc(Cl)cc2Cl)C1 (centres undefined)	15	22	-0.8	i	-1.3
CCCN1[C@@H]2c3ccc(-c4ccncc4)c(=O)n3C[C@@H]2[C@@H](CO)[C@@H]1C(=O)N1CCOCC1	-4	0	-4.8	i	-2.5
C[C@@H]1CN([C@H](C)CO)C(=O)c2cc(C#CCN(C)C)cnc2O[C@H]1CN(C)Cc1ccccn1	-3	20	-3.9	i	-3.5
CC(C)NC(=O)N(C)C[C@@H]1Oc2ccc(NC(=O)CCCCCC(=O)Nc3ccccc3N)cc2C(=O)N([C@@H](C)CO)C[C@H]1C	1	-8	-0.2	i	-2.2
COCC(=O)N(C[C@H]1N[C@H](CO)[C@H]1c1ccc(-c2ccccc2)cc1)C(C)C	1	4	-1.9	i	-0.3
COc1ccc2c3c([nH]c2c1)[C@@H](CO)N(CC1CC1)CC31CN(S(=O)(=O)c2cccc(F)c2)C1	2	-12	12	i	-4.3
C[C@H](CO)N1C[C@H](C)[C@@H](CN(C)C(=O)Nc2ccccc2)Oc2ccc(NC(=O)CCN3CCOCC3)cc2CC1=O	1	8	-3.0	i	-1.8
C[C@H](O)C#Cc1cnc2c(c1)C(=O)N([C@H](C)CO)C[C@H](C)[C@H](CN(C)Cc1cncnc1)O2	-3	2	-2.3	i	-3.8
COc1ccc(C(=O)Nc2ccc3c(c2)C(=O)N(C)[C@H]2CC[C@H](CC(=O)NCC4CC4)O[C@@H]2CO3)cc1	-1	-3	0.2	i	-0.1
O=C(C[C@@H]1C[C@H]2c3cc(NS(=O)(=O)c4ccc(F)cc4)ccc3O[C@H]2[C@H](CO)O1)NCc1ccc(Oc2ccccc2)cc1	-5	-26	0.6	i	3.5
Cc1ccc2nc(C3CCCCC3)c(Cc3cccc(F)c3)n2c1	-58	-81	-18	i	1.7
C[C@H]1CN([C@@H](C)CO)C(=O)c2cc(NC(=O)CCN3CCOCC3)ccc2O[C@H]1CN(C)Cc1ccc(C(F)(F)F)cc1	-2	6	-5.1	i	0.7
OC(c1ccc(F)c(F)c1)c1nc(-c2cccs2)cs1 (centres undefined)	-23	-42	-4.4	i	-2.1
C[C@@H]1CN([C@H](C)CO)S(=O)(=O)c2ccc(C#Cc3cccnc3)cc2O[C@H]1CN(C)CC1CCOCC1	-12	-13	-6.5	i	3.2
CC(C)NC(=O)N(C)C[C@H]1OCCCC[C@H](C)Oc2ccc(NC(=O)c3ccccc3)cc2C(=O)N([C@H](C)CO)C[C@@H]1C	0	3	1.2	i	-3.2
C[C@H]1CN([C@@H](C)CO)C(=O)Cc2cc(NC(=O)Cc3cn(C)c4ccccc34)ccc2O[C@@H]1CN(C)Cc1ccc(Cl)c(Cl)c1	1	5	2.0	i	1.4
O=C(Cc1ccccn1)N1CC(=O)N2[C@H](C1)[C@H](c1ccc(C#CCC3CCCC3)cc1)[C@@H]2CO	-19	-51	21	i	4.1
COc1ccc(CNC(=O)O[C@@H]2C[C@H]3C(=O)N(c4ccccc4)C(=O)[C@H]3[C@@]3(CN(S(=O)(=O)c4ccc(C)cc4)C[C@H]3C)[C@@H]2O)cc1OC	-1	-2	4.3	i	-0.9
CNC[C@H]1Oc2ccc(NS(=O)(=O)c3ccccc3)cc2CC(=O)N([C@H](C)CO)C[C@H]1C	6	9	0.4	i	-2.0
COc1ccccc1-c1cn(CC[C@@H]2CC[C@@H](NC(=O)c3cnccn3)[C@@H](CO)O2)nn1	-4	4	-0.7	i	-0.5
C[C@@H]1CN([C@@H](C)CO)C(=O)c2cccc(NS(=O)(=O)c3ccc(Cl)cc3)c2O[C@H]1CN(C)S(=O)(=O)c1ccc(Cl)cc1	-4	-7	1.7	i	-3.8
COc1ccc(NC(=O)Nc2ccc3c(c2)C(=O)N([C@@H](C)CO)C[C@H](C)[C@H](CN(C)C(=O)CCCN(C)C)OCCCC[C@H](C)O3)cc1	-1	3	-0.1	i	16
O=C(C[C@@H]1CC[C@@H](NC(=O)CN2CCOCC2)[C@H](CO)O1)NCCc1ccccc1	2	1	1.0	i	-0.7
C[C@H]1CN([C@@H](C)CO)C(=O)c2cc(NS(=O)(=O)c3cn(C)cn3)ccc2O[C@@H]1CN(C)Cc1ccc(C(=O)O)cc1	2	6	-1.2	i	-2.4
C[C@@H]1CCCCO[C@@H](CN(C)Cc2ccc(C(F)(F)F)cc2)[C@H](C)CN([C@H](C)CO)C(=O)c2cc(N(C)C)ccc2O1	-3	-24	16	i	40*
Following part:
SMILES	rRNA inh HTS	rRNA inh HTS OD600	rRNA inh HTS RFP	FGF22 binding	MLL AF4-AF9 inh
CCCN(C)C[C@@H]1Oc2cc(C3=CCCCC3)ccc2S(=O)(=O)N([C@H](C)CO)C[C@@H]1C	6	4	1.4	i	1.9
C[C@H](NC(=O)C[C@@H]1CC[C@H](NS(=O)(=O)c2cccc(F)c2)[C@@H](CO)O1)c1ccccc1	-1	1	-0.6	i	-1.3
CC1=C(C(=O)N2CCCCCC2)CC(CC(=O)NC2CCCCC2)C(=O)N1Cc1ccc(F)cc1 (centres undefined)	-1	0	4.6	i	0.6
CCCNC(=O)N1C[C@@H](O)COC[C@H]2O[C@H](CC(=O)N3CCC(Cc4ccccc4)CC3)CC[C@@H]21	-2	-9	1.7	i	-1.5
CC(C)c1cn(CC[C@@H]2CC[C@@H](NS(=O)(=O)c3ccc(F)cc3)[C@H](CO)O2)nn1	-1	-1	-0.2	i	-1.8
O=C(C[C@@H]1CC[C@@H]2[C@H](COC[C@@H](O)CN2S(=O)(=O)c2ccc(F)cc2)O1)N[C@@H]1CCN(Cc2ccccc2)C1	2	5	-5.8	i	0.4
N#C[C@@H]1[C@H](c2ccccc2-c2ccccc2)[C@H](CO)N1C(=O)Cc1ccccc1	-3	-27	-3.9	i	0.3
CCS(=O)(=O)Nc1ccc2c(c1)C(=O)N(C)[C@@H]1CC[C@@H](CC(=O)NCc3ccccc3F)O[C@H]1CO2	3	5	-1.9	i	-17
COc1ccc(NC(=O)c2cc(-c3cc(Cl)ccc3OC)n[nH]2)c(OC)c1	-8	-2	-5.8	i	-3.1
CCNC(=O)C1CCCN(C(=O)c2cc(F)ccc2C)CC1 (centres undefined)	6	9	-4.2	i	-7.3
CNC[C@@H]1OCCCC[C@H](C)Oc2ccc(NS(=O)(=O)c3ccc(C)cc3)cc2C(=O)N([C@H](C)CO)C[C@@H]1C	5	3	-0.2	i	-9.5
COc1ccc2c3c([nH]c2c1)[C@H](CO)N(C(=O)c1cnccn1)CC31CN(S(C)(=O)=O)C1	2	8	-2.9	i	-5.8
CN(C)C(=O)c1cccc(-c2ccc3c(c2)[C@@H]2[C@@H](CCN2C(=O)C2CC2)[C@@H](CO)N3)c1	0	7	-2.3	i	-5.4
C[C@@H]1CN([C@@H](C)CO)C(=O)Cc2cc(NC(=O)Cc3cn(C)c4ccccc34)ccc2O[C@H]1CN(C)C	-1	10	0.5	i	5.9
C[C@H](CO)N1C[C@H](C)[C@H](CN(C)S(C)(=O)=O)Oc2ncccc2C1=O	3	-2	0.2	i	-5.1
C/C=C/c1ccc([C@@H]2[C@@H](CO)N(C(=O)CN(C)C)C23CN(C(=O)C2CCOCC2)C3)cc1	2	-2	0.5	i	-0.7
O=C(C[C@@H]1CC[C@H](NC(=O)Nc2ccc(C(F)(F)F)cc2)[C@H](CO)O1)NCc1cc(F)cc(F)c1	0	-42	8.1	i	1.0

Compound profiles, from the list above. Screens in order: rRNA inh HTS, rRNA inh HTS OD600, rRNA inh HTS RFP, FGF22 binding, MLL AF4-AF9 inh
Profile of C[C@H](NC(=O)C[C@@H]1CC[C@H](NS(=O)(=O)c2cccc(F)c2)[C@@H](CO)O1)c1ccccc1 = -1, 1, -0.6, i, -1.3
Profile of CN(C)C(=O)c1cccc(-c2ccc3c(c2)[C@@H]2[C@@H](CCN2C(=O)C2CC2)[C@@H](CO)N3)c1 = 0, 7, -2.3, i, -5.4
Profile of C/C=C/c1ccc([C@@H]2[C@@H](CO)N(C(=O)CN(C)C)C23CN(C(=O)C2CCOCC2)C3)cc1 = 2, -2, 0.5, i, -0.7
